APEX1 inh – blocks human APE1 abasic DNA cleavage. recombinant APE1, TAMRA/BHQ-2 abasic DNA cleavage fluorescence. Potency, µM (series often up to 65.8 µM), inactives show at the highest dose activity change, negative = inhibition, hits mostly inhibitors. actives 0.35% (n = 350,000). AID 2517;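 further: plate controls were vehicle for no effect and reference inhibitor for full effect; nearly all actives have a fitted effect of over 55% in size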
Target sequence (P27695 whole entry, looked up): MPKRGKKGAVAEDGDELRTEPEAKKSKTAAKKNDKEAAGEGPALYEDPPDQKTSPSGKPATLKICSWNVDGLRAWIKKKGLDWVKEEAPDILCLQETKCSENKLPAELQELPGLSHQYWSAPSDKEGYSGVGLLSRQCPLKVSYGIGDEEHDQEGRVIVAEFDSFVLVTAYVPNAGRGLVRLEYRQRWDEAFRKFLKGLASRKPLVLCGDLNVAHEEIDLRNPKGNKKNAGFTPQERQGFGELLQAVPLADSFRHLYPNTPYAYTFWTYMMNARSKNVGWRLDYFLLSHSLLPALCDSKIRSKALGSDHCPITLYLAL
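APE1 at 0.75 nM final was preincubated with compound 15 min at room temperature, then 50 nM double-stranded THF abasic-site substrate (5'-TAMRA/3'-BHQ-2) was added. Fluorescence (ex 525/em 598 nm) was read kinetically; third-minus-first read gave activity.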
POLH inh – DNA polymerase eta (human) inhibition; AID 588591; recombinant Pol eta, fluorescent DNA replication assay; actives 1.2% (n = 390,000); Potency, µM (highest dose often 114 µM), for inactives: at the highest dose activity change, negative = inhibition, most hits filed as inhibitors; further: on the % scale 0 is the no-effect control and ±100 the full control effect
Target sequence (Q9Y253 whole entry, looked up): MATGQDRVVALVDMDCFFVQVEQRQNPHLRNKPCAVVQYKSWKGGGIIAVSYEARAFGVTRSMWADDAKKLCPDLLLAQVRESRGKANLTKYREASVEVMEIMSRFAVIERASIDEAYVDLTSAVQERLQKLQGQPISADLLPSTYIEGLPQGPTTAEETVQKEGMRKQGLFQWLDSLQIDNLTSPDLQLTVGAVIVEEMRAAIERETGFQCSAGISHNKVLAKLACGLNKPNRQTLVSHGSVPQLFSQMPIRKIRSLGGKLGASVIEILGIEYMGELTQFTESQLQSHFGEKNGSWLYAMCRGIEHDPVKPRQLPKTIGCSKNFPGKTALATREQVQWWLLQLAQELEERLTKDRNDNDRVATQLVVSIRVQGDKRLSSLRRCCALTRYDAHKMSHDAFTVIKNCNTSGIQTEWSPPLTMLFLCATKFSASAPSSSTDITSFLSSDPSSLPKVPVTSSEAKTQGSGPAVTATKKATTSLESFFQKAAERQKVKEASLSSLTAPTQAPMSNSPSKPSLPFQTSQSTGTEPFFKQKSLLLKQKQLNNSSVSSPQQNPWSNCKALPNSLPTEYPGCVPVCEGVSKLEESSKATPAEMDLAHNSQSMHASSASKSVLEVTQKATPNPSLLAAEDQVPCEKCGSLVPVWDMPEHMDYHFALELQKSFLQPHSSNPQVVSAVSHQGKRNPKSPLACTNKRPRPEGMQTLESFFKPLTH
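Fluorescent replication assay: 50 nM final substrate added after a 15 min room-temperature compound preincubation with 10 nM enzyme. Signal taken at 0 min and again at 10 min.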
PGK inhibitor – blocks T. brucei phosphoglycerate kinase | P07378 | PGK/GAPDH coupled, Kinase-Glo luminescence, 60 min | Potency, µM (highest dose often 57.5 µM), without a hit: at the highest dose activity change, negative = inhibition, actives largely listed as inhibitors | actives 0.043% (n = 380,000) | AID 602233; further: on the % scale 0 is the no-effect control and ±100 the full control effect; nearly all actives have a fitted effect of over 60% in size
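Recombinant glycosomal PGK reaction used 1,3-bisphosphoglycerate generated in-well by GAPDH (100nM final) in 100mM TEA pH 7.6, 5mM MgCl2, 0.01% Tween-20. After 60 minutes at room temperature, ATP was read by Kinase-Glo Plus luminescence end-point.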
BLM helicase inh – Bloom syndrome helicase (human) inhibition | P54132 | recombinant BLM DNA unwinding, fluorescence dequenching | Potency, µM (doses to about 56.1 µM), without a hit: at the top dose activity change, negative = inhibition, usual class: inhibitors | actives 0.2% (n = 350,000) | AID 2528;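 further: plate controls were vehicle for no effect and no enzyme for full effect; nearly all actives have a fitted effect of over 35% in size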
Pol beta inh – inhibitors of human DNA polymerase beta. actives 1.3% (n = 340,000). Potency, µM (doses to about 114 µM), for the others: top-dose activity change, negative = inhibition, most hits filed as inhibitors. Pol beta primer extension/strand displacement, fluorescence kinetic. P06746; further: on the % scale 0 is the no-effect control and ±100 the full control effect
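Enzyme-only controls used 10 nM Pol beta; buffer lacking enzyme served as negative control. Compound preincubated 15 min, then 50 nM substrate added; 0 and 10 min reads at room temperature.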
Anesthetic bind – candidate novel general anesthetic via apoferritin binding | AID 485281 | P02791 | apoferritin/1-aminoanthracene competitive binding, fluorescence | actives 0.074% (n = 350,000) | Potency, µM (highest dose often 77.5 µM), without a hit: at the top dose activity change, negative = displacement, most hits filed as inhibitors; further: on the % scale 0 is the no-effect control and ±100 the full control effect; nearly all actives have a fitted effect of over 20% in size
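Read-out: endpoint 1-AMA fluorescence, excitation 380 nm and emission 535 nm, after compounds sit 10 min at room temperature with 10 uM horse-spleen apoferritin in 50% saturated 1-AMA/PBS. Values come from four-parameter Hill fits.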
Pol iota inh – DNA polymerase iota (human) inhibition; actives 1% (n = 390,000); Q9UNA4; Pol iota fluorescent replication assay, 10 min; Potency, µM (top dose mostly 115 µM), for inactives: top-dose activity, negative = inhibition, usual class: inhibitors; AID 588590
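Fluorescent replication assay read twice, at 0 min and 10 min after adding 50 nM (final) substrate. Enzyme (10 nM) and compounds were first incubated 15 min at room temperature; enzyme-free buffer wells were negative controls.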
POLK inh – DNA polymerase kappa (human) inhibition; purified Pol kappa, fluorescent DNA synthesis assay, 10 min; Potency, µM (doses to about 107 µM), inactives show top-dose activity, negative = inhibition, most hits filed as inhibitors; actives 0.53% (n = 400,000); further: on the % scale 0 is the no-effect control and ±100 the full control effect
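Kinetic fluorescence screen: compound preincubated 15 min RT with 10 nM enzyme; 50 nM substrate (final) initiates; reads at 0/10 min.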
Starred values were filed as active, the others as inactive; i = inactive; ? = inconclusive; . = not tested or not shown; [ ] = dose if it differs, or a comment. The call rests on the fitted dose curve; in most records, active means well fitted curve in the direction sought with a large enough effect; inconclusive means small, poorly fitted or top-dose-only effect, or another doubt; inactive means no such curve, though single readings can be large; an effect the other way counts as inactive or inconclusive. Potency means the concentration at half of the fitted maximal effect. A portion of the library; the hit share may differ from the screen's.

SMILES	APEX1 inh	POLH inh	PGK inhibitor	BLM helicase inh	Pol beta inh	Anesthetic bind	Pol iota inh	POLK inh
C=CCn1c(SCC(N)=O)nc2scc(-c3ccc(C)o3)c2c1=O	1.8%	12.9%	-3.0%	-4.9%	18.6%	5.7%	-6.4%	-12.6%[60.1 µM]
COc1cccc(-c2csc(NNC(=O)c3cccs3)n2)c1	-5.1%	-12.6%	5.0%	-2.6%	?	-18.5%	-18.1%	-19.2%
COc1ccc(OC)c(-n2c(-c3cc(-c4ccc(F)cc4)n[nH]3)n[nH]c2=S)c1	-1.9%	-2.9%	-0.6%	1.9%	8.6%	-8.9%	4.4%	-18.3%
Cc1ccc(C)c(NC(=O)CSc2nnc(C)n3c2cc2occc23)c1	.	-3.2%	-3.2%	-7.9%	11.5%	-3.0%	20.5%	-1.8%
COc1ccc(Cn2c(=S)[nH]c3cc(OC)c(OC)cc3c2=O)cc1	3.4%	-2.7%	-1.0%	-2.6%	11.1%	-8.4%	64.4%[activator]	-13.3%
CCOCCCNC(=O)c1cn2c3c(ccc(Cl)c3c1=O)OC(C)C2 (stereo not given)	0.0%	-7.4%	i	0.3%	34.3%	-8.0%	9.0%	10.2%
CC(C)(C)c1ccc(OCC(=O)NNC(=O)c2cccnc2)cc1	2.0%	5.2%	-1.5%	-3.8%	-11.1%	-16.6%	-12.9%	-7.3%
O=C(CSc1nc2ccccc2nc1Cc1ccc(Cl)cc1)N1CCCc2ccccc21	.	-14.2%	-9.0%	-6.8%	3.1%	-5.2%	3.9%	-11.6%[60.1 µM]
Cc1cc(N2C(=O)C(O)=C(C(=O)c3cccs3)C2c2ccc(F)cc2)no1 (stereo not given)	26.1%	-18.1%	-5.9%	-1.5%	-1.1%	5.0%	-20.1%[58.9 µM]	1.3%
CCOC(=O)c1cc(C(=O)OCC)c(=O)[nH]c1N1CCCCC1	0.4%	-18.8%	-3.0%	-7.2%	3.7%	-9.0%	37.2%[activator]	7.6%

Next section; it opens with the 2 that closed the last part.
SMILES	APEX1 inh	POLH inh	PGK inhibitor	BLM helicase inh	Pol beta inh	Anesthetic bind	Pol iota inh	POLK inh
Cc1cc(N2C(=O)C(O)=C(C(=O)c3cccs3)C2c2ccc(F)cc2)no1 (stereo not given)	26.1%	-18.1%	-5.9%	-1.5%	-1.1%	5.0%	-20.1%[58.9 µM]	1.3%
CCOC(=O)c1cc(C(=O)OCC)c(=O)[nH]c1N1CCCCC1	0.4%	-18.8%	-3.0%	-7.2%	3.7%	-9.0%	37.2%[activator]	7.6%
O=S(=O)(Nc1nc2ccccc2nc1Cl)c1ccccc1C(F)(F)F	16.4%	-9.9%	1.5%	1.3%	3.0%	-4.2%	7.5%	-2.2%
CCOC(=O)N1CCN(Cc2cc(=O)oc3ccc(Cl)cc23)CC1	-0.8%	2.8%	-5.3%	-4.2%	10.4%	-16.5%	5.7%	-8.3%
Cc1ccc(C(=O)C2=C(O)C(=O)N(CC3CCCO3)C2c2ccccc2F)o1 (stereo not given)	-10.7%	13.2%	9.4%	-5.4%	12.5%	-1.3%	30.8%[activator]	-3.1%
CCOc1ccccc1C(=O)Nc1ccc(S(=O)(=O)Nc2onc(C)c2C)cc1	.	-3.0%	1.5%	1.2%	-9.1%	-9.8%	4.6%	-4.5%
CC(=O)Nc1ccc(NC(=O)CSc2nnc(-c3cccs3)n2C)cc1	1.8%	-13.0%	10.9%	-3.7%	64.4%	-0.8%	104.6%[activator]	-5.1%
COc1cccc(Cn2c(=O)n(Cc3ccco3)c(=O)c3oc4ccccc4c32)c1	.	-17.4%	i	-6.1%	29.3%	8.6%	1.9%	-3.6%
CCCCOc1ccc(C(O)C(CN2CCOCC2)c2ccccc2)cc1 (stereo not given)	5.0%	-11.2%	4.7%	-2.0%	-1.3%	6.2%	?	-8.0%
CC(C)(C)c1ccc(C(=O)NC2(C(F)(F)F)C(=O)Nc3c2c(=O)[nH]c(=O)n3-c2ccccc2)cc1 (stereo not given)	.	-11.8%	9.6%	1.1%	26.0%	-10.0%	1.3%	-0.4%
O=C(Nc1ccccc1)c1cccnc1Nc1ccccc1	-2.6%	-5.5%	1.4%	-8.9%	0.7%	-23.1%	10.3%	-23.1%
O=C(O)CSc1ncnc2c1sc1nc(-c3ccccc3)c3c(c12)CCC3	-2.5%	-6.9%	-13.3%	0.6%	?	2.9%	?	-35.0%

Given as comma-separated lines: part of the list above.
Molecule,APEX1 inh,POLH inh,PGK inhibitor,BLM helicase inh,Pol beta inh,Anesthetic bind,Pol iota inh,POLK inh
CC(C)(C)c1ccc(C(=O)NC2(C(F)(F)F)C(=O)Nc3c2c(=O)[nH]c(=O)n3-c2ccccc2)cc1 (stereo not given),.,-11.8%,9.6%,1.1%,26.0%,-10.0%,1.3%,-0.4%
CCOc1ccccc1C(=O)Nc1ccc(S(=O)(=O)Nc2onc(C)c2C)cc1,.,-3.0%,1.5%,1.2%,-9.1%,-9.8%,4.6%,-4.5%

(continued)
SMILES	APEX1 inh	POLH inh	PGK inhibitor	BLM helicase inh	Pol beta inh	Anesthetic bind	Pol iota inh	POLK inh
COc1cc(OC)c(NC(=O)c2nc(-c3ccncc3)no2)cc1Cl	.	0.4%	i	1.3%	0.5%	2.8%	?	-14.5%
COc1ccc(NC(=O)CSc2nnc(-c3cccs3)n2C)cc1OC	17.5%	0.1%	5.9%	3.1%	43.8%	-6.7%	23.7%	-8.9%
Cc1ccc(NC(=O)c2nc(-c3ccncc3)no2)c(Cl)c1	.	9.0%	-13.5%	0.5%	21.5%	-2.4%	-15.7%	-4.2%
CCOc1ccc(NC(=O)CSc2cc(C)c3ccccc3n2)cc1	.	-1.8%	0.5%	0.9%	18.4%	-11.6%	10.3%	0.4%[60.1 µM]
CCCCC(=O)Nc1nnc(S(=O)(=O)N(C)Cc2ccccc2)s1	.	-18.7%	-5.1%	-2.4%	-7.5%	-6.0%	-7.2%	-5.2%
O=C(Cn1c(=O)n(Cc2ccc3c(c2)OCO3)c(=O)c2oc3ccccc3c21)Nc1ccccc1	.	1.0%	-7.3%	-4.3%	3.3%	-14.9%	13.5%	-14.5%
CC1=CC(C)(C)Nc2ccc(OC(=O)c3cccnc3)cc21	14.3%	-6.4%	-5.8%	-6.9%	0.3%	-21.1%	12.9%	-2.7%
O=C(Nc1ccccc1C(=O)O)c1cccc(NC(=O)c2ccc(Br)o2)c1	0.4%	?	i	1.1%	-1.2%	-4.6%	?	-2.8%
Cc1c(C#N)c(N)nc2c3c(sc12)NC(=O)CC3c1ccccc1 (stereo not given)	5.1%	-1.2%	i	-9.5%	11.3%	7.9%	2.7%	6.1%
CC(C)Oc1ccc(-c2nc(NCC3CCCO3)c3ccccc3n2)cc1 (stereo not given)	-4.6%	-2.7%	-8.4%	-4.4%	-23.2%	-6.5%	22.7%	-6.0%
Cc1ccc2ncc(C(=O)NCCc3ccc(S(N)(=O)=O)cc3)c(=O)n2c1	.	-14.7%	i	-2.6%	-7.7%	8.5%	?	-4.4%
COc1cccc(C2/C(=C(\O)c3ccc4c(c3)OCCO4)C(=O)C(=O)N2Cc2cccnc2)c1 (stereo not given)	76.6%[activator]	-10.5%	i	1.9%	-0.7%	5.2%	1.6%	6.5%
Cc1cc(Br)cc2c(C(=O)NCC3CCCO3)cc(-c3cccs3)nc12 (stereo not given)	12.0%	-0.5%	i	-2.0%	9.4%	-2.8%	28.5%	-9.8%
Cc1ccc(NC(=S)NC(=O)c2ccccc2)cc1NC(=S)NC(=O)c1ccccc1	-4.7%	-4.4%	-1.1%	-4.4%	16.1%	-9.9%	11.9%	-3.0%
CCN1CCN(C(CNS(=O)(=O)c2ccc(OC)cc2)c2cccnc2)CC1 (stereo not given)	-0.4%	-10.8%	5.2%	0.4%	4.3%	-2.4%	2.3%	-15.9%
CC(=O)c1ccc(NC(=O)COc2ccccc2C(=O)Nc2ccc(C)cn2)cc1	4.1%	-5.3%	-5.8%	-9.7%	1.8%	-9.1%	?	-5.2%
O=C(c1cc2cc(Br)ccc2[nH]1)N1CCc2ccccc21	14.0%	-23.8%	-4.6%	-2.1%	37.0%	-7.5%	?	-1.0%
CCOc1ccc2oc(=O)cc(CN3CCN(C(=O)c4cccc(Cl)c4)CC3)c2c1	.	8.4%	-14.8%	1.5%	-11.1%	-18.5%	-14.9%	-10.2%
Cc1nc(SCC(=O)NCC2CCCO2)c2oc3ccccc3c2n1 (stereo not given)	-1.1%	-9.8%	-0.6%	2.2%	14.0%	-10.8%	-10.3%	-3.1%[60.1 µM]
CCCCNc1nc2c(S(=O)(=O)c3ccccc3)nnn2c2ccccc12	0.5%	-11.9%	-5.2%	0.5%	?	-0.4%	-20.6%	7.9%
O=C(COc1ccc(Cl)cc1)Nc1ccc(-c2nc3cc(Cl)ccc3o2)c(O)c1	.	-7.6%	i	-3.8%	?	17.7%	28.2%	1.4%
Cc1nc2ccn(Cc3cccnc3)c(=O)c2cc1C(=O)Nc1ccc(OC(F)(F)F)cc1	.	-1.9%	-0.4%	-2.3%	0.8%	-8.7%	20.0%	0.0%
O=C(Cn1c(=O)n(Cc2ccccc2)c(=O)c2ccccc21)NCc1ccco1	1.7%	-7.3%	i	-2.9%	-5.7%	-14.9%	?	0.5%
COc1cc2[nH]c(=S)n(Cc3ccc(F)cc3)c(=O)c2cc1OC	0.1%	5.7%	-1.0%	-2.7%	15.4%	-3.2%	119.6%[activator]	-10.6%
COc1ccc(Br)cc1-c1nc2c(c(=O)[nH]c(=O)n2Cc2ccccc2)n1C	25.6%	-11.0%	-4.5%	-5.3%	84.7%	-10.6%	55.3%[activator]	-7.1%
COc1cccc(Cc2nc3ccccc3nc2SCC(=O)Nc2cccc(C)c2)c1	.	-1.3%	-1.8%	-8.1%	-0.1%	2.8%	-18.1%	-0.5%[60.1 µM]
Cc1ccc(-c2nnc3c4ccccc4c(C)nn23)cc1NC(=O)c1ccccc1	.	-25.3%	-3.8%	-7.0%	-14.6%	-6.9%	-8.1%	-19.2%
N#CCCN1CCN(C(CNS(=O)(=O)c2ccc(Cl)cc2)c2ccccc2)CC1 (stereo not given)	-8.1%	-8.5%	4.1%	-2.2%	4.4%	-13.3%	5.7%	-3.0%
Cc1oc(-c2ccccc2Cl)nc1CSc1nncn2c1cc1occc12	.	6.5%	-0.7%	1.8%	0.2%	-13.2%	5.6%	-16.8%
COc1ccc2cc(C#N)c(SCC(=O)N3CC(=O)Nc4ccccc43)nc2c1	-4.0%	-2.0%	-1.8%	-0.8%	-1.3%	3.9%	-2.8%	-17.6%
CC1=C(C(=O)OCC2CCCO2)C(c2cccc(C(F)(F)F)c2)C2=C(CC(c3ccco3)CC2=O)N1 (stereo not given)	0.9%	?	-3.0%	-24.0%	-19.3%	50.0%[activator]	5.7%	-12.7%

From PubChem BioAssay
